# From PubChem BioAssay
# Ba CapD inh: CapD enzyme inhibition; purified CapD enzyme, fluorescence intensity read-out; active compounds read low; some hits fall short of the stated cut; z-score (test concentration not listed); 140,000 compounds, 0.23% hits; AID 492967;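 active = z-score under -4 in either of two replicates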;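 note: stock transfer was 100 nL into about 40 µL; score is relative to mean and spread of the plate; one replicate is shown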
# AID504770: E. coli YBA685 growth inhibition, screen for V. cholerae RctB inhibitors. AID 504770. E. coli YBA685 rctB-dependent plasmid, OD600 growth, 3 h; active compounds read low. 130,000 compounds, 0.27% hits. z-score (test concentration not listed);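 active = z-score under -2 on both plates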;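 note: wells of about 30 µL received 100 nL stock; score is relative to mean and SD of the test wells; the first replicate is given; strong numbers were not always called active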
# * = called active by the depositor; . = not tested or not shown.
1: CN(C)CCNC(=O)c1ccc2c(=O)n(Cc3ccc4c(c3)OCO4)c(=S)[nH]c2c1
2: O=C(O)CC1(CC(=O)N2CC=C(c3ccc(F)cc3)CC2)CCCC1
3: N#Cc1ccccc1S(=O)(=O)N1CCN(Cn2c(Cc3ccccc3)nc3ccccc32)CC1
4: CC1=NN(c2ccccc2)C(=O)C1N=Nc1ccc([N+](=O)[O-])cc1 (stereo not given)
5: CS(=O)(=O)c1cc(C#N)c(N2CCN(S(=O)(=O)c3ccccc3)CC2)nc1-c1ccccc1C(F)(F)F
6: CC(=O)c1cc2c3ccccc3ccc2c2ccccc12

Compound | 1 | 2 | 3 | 4 | 5 | 6
Ba CapD inh | -0.81 | 4.42 | . | -0.59 | 3.55 | -0.08
AID504770 | -0.45 | . | -0.85 | . | . | .

7: Nc1ccc2c(c1)C(=O)N(CCCC(=O)O)C2=O
8: Cc1ccc(NC(=O)CSc2nc3ccsc3c(=O)n2Cc2ccccc2F)cc1Cl
9: COc1ccc(N2CC(C(=O)OCCN(C3=NS(=O)(=O)c4ccccc43)c3ccccc3)CC2=O)cc1 (stereo not given)
10: c1ccc(Cn2c(SCC3CCCCO3)nnc2-c2ccco2)cc1 (stereo not given)
11: Cc1ccc(NC(=O)Nc2nnc(N3C(C)CCCC3C)s2)cc1C (stereo not given)
12: Cc1ccc(Sc2cccc(F)c2C#N)cc1

Compound | 7 | 8 | 9 | 10 | 11 | 12
Ba CapD inh | 0.055 | -1.33 | 0.305 | . | -0.92 | 0.575
AID504770 | 0.85 | 0.65 | . | -0.85 | 0.5 | .

# 3 structures already listed, arranged by SMILES length, highest first:
8: Cc1ccc(NC(=O)CSc2nc3ccsc3c(=O)n2Cc2ccccc2F)cc1Cl
11: Cc1ccc(NC(=O)Nc2nnc(N3C(C)CCCC3C)s2)cc1C (stereo not given)
10: c1ccc(Cn2c(SCC3CCCCO3)nnc2-c2ccco2)cc1 (stereo not given)

Compound | 8 | 11 | 10
Ba CapD inh | -1.33 | -0.92 | .
AID504770 | 0.65 | 0.5 | -0.85

# The list continues:
13: CSc1ccc(OC(=O)Nc2ccccc2)cc1
14: CC1(C)S[C@@H]2[C@H](NC(=O)C3(N)CCCCC3)C(=O)N2[C@H]1C(=O)O
15: COc1cccc(OC)c1CNC(=O)CNC(=O)c1cn2c(n1)sc1ccccc12
16: CCOc1ccc(NC(=O)c2ccc(F)c(S(=O)(=O)N3CCN(c4cccc(Cl)c4)CC3)c2)cc1
17: N#Cc1c(N)nc2c(c1-c1ccccc1)CCC2
18: OC(CN1CCOCC1)Cn1c2ccc(Br)cc2c2cc(Br)ccc21 (stereo not given)

Compound | 13 | 14 | 15 | 16 | 17 | 18
Ba CapD inh | 0.385 | -1.94 | -0.485 | -1.21 | 41 | 0.255
AID504770 | . | . | . | . | 1.45 | .

19: CCOC(=O)c1cnc(COc2ccccc2Cl)[nH]c1=O
20: O=C(Cn1nc(Cc2ccncc2)c2ccccc2c1=O)N1CCCC1
21: COc1cccc(C(=O)N2c3c(OC)cccc3-c3c(ssc3=S)C2(C)C)c1
22: O=C(O)Cn1c2c(c3ccccc31)CSc1ccc(Cl)cc1-2
23: NC(=O)c1cc(S(=O)(=O)NCCN2CCc3ccccc3C2)cs1
24: Nc1nc2ccccc2c(=O)[nH]1

Compound | 19 | 20 | 21 | 22 | 23 | 24
Ba CapD inh | 0.705 | -0.24 | 0.205 | -0.06 | 0.57 | 85.1
AID504770 | -1.1 | 1.3 | . | -0.3 | 0 | .

25: COC(=O)c1ccc2c(=O)n(CCc3ccc(S(N)(=O)=O)cc3)c(SCC(=O)NCc3ccccc3)nc2c1
26: CC1=NN(C(=O)CCc2ccccc2)C(O)(c2ccccc2)C1 (stereo not given)
27: Cc1nn(C)c2oc(=O)c(Cl)c(C)c12
28: Cc1ccc(C(C)C)c(Oc2ccccc2NC(=O)c2cc(Br)cc(Br)c2O)c1
29: CC1CCN(c2cc(N3CCN(C(=O)c4ccco4)CC3)c3c4c(onc24)-c2ccccc2C3=O)CC1
30: CN(C(=O)c1ccc(Cl)cc1)C1(C)CCS(=O)(=O)C1 (stereo not given)

Compound | 25 | 26 | 27 | 28 | 29 | 30
Ba CapD inh | 0.985 | -0.395 | 86 | 1.93 | 0.005 | 0.21
AID504770 | . | -0.05 | . | . | 1.1 | -0.4

31: Cc1nc2c(C)cccc2c2c1CCN2c1ccccc1F
32: c1ccc(-c2cc3nccc(-c4cccs4)n3n2)cc1
33: CNCC(O)c1cccc(O)c1 (stereo not given)
34: CCCC12CN(C(=O)CC(C)C)CC(CCC)(CN(C(=O)CC(C)C)C1)C2=O
35: CCOC(=O)c1cccc(C(=O)Oc2ccc3cc(Br)ccc3c2)n1
36: NC(=O)C1CCN(C(=O)CCSCc2ccccc2)CC1

Compound | 31 | 32 | 33 | 34 | 35 | 36
Ba CapD inh | 106 | 0.625 | 0.55 | -0.09 | -0.325 | .
AID504770 | 0.05 | 0.2 | -1.5 | -0.6 | -1.4 | -0.45

37: COC(=O)C1=C(C)NC2=C(C(=O)CC(c3ccccc3Cl)C2)C1c1cc(OC)c(OC)c(OC)c1 (stereo not given)
38: Cc1cc(C)n2nc(SCC(=O)N3c4ccccc4CC3C)nc2n1 (stereo not given)
39: CCOC1(C)OC2CCC(CC)OC2O1 (stereo not given)
40: O=C1c2ccccc2C(=O)N1CSc1ncnc2c1cnn2-c1ccccc1
41: N#Cc1sccc1CS(=O)(=O)c1ccc(Cl)cc1
42: CC(C)(CNC(=O)c1c(Cl)cccc1Cl)SCc1ccc(F)cc1

Compound | 37 | 38 | 39 | 40 | 41 | 42
Ba CapD inh | 1.74 | . | 1.5 | . | 0.95 | 0.05
AID504770 | . | -0.05 | -0.55 | -0.85 | -0.25 | .

43: Cc1c(Cl)ccc2sc(N(Cc3ccccn3)C(=O)c3ccco3)nc12
44: NS(=O)(=O)c1ccc(-c2ccc(/C=C3\Sc4ccccc4C3=O)o2)cc1
45: O=C(CSc1nnc(CNc2ccc(F)cc2)o1)N1CCOCC1
46: Cc1ccc(SCc2cc(=O)[nH]c(/N=C(/N)Nc3ccccc3)n2)cc1
47: CCOC(=O)C1=C(O)CSC1=NC(=O)c1ccc(OC)cc1
48: Cc1nc(N2CCN(c3ccccn3)CC2)c2c(C)c(C(=O)N3CCCCC3C)sc2n1 (stereo not given)

Compound | 43 | 44 | 45 | 46 | 47 | 48
Ba CapD inh | . | 12.2 | . | -0.845 | . | -0.815
AID504770 | 1.45 | . | 1.75 | 1.9 | 1 | .

49: CCOC(=O)c1cnn(-c2ncnc3sc(-c4ccccc4)cc23)c1N
50: CCOC(=O)N1CCN(C(=O)CN(c2ccc(C)cc2)S(=O)(=O)c2cc(C)ccc2OC)CC1
51: c1ccc(-c2cc3ncnc(N4CCSCC4)c3s2)cc1
52: O=C(C1CC1)N1CCN=C1SCc1cccc(C(F)(F)F)c1
53: CN1CCc2c(C#N)c(N)n(N)c(=S)c2C1
54: CC(=O)Oc1ccc(S(=O)(=O)c2ccc(OC(C)=O)cc2)cc1

Compound | 49 | 50 | 51 | 52 | 53 | 54
Ba CapD inh | . | -0.245 | 6.09 | . | . | .
AID504770 | 2.25 | 1.05 | -0.85 | 0.25 | -0.35 | -0.55

55: CNc1ccccc1C(=O)Nc1cccc(OC)c1
56: COCCn1c(SCC(=O)N2CCc3ccccc32)nc2c(c1=O)SC(C)C2 (stereo not given)
57: Cc1ccnc(NC(=O)Cn2ncc3c2-c2ccccc2OC3)c1
58: O=S1(=O)CCC(NCc2cc(Cl)c3c(c2)OCCCO3)C1 (stereo not given)
59: CC(CC1CC(C)(C)OC1=O)C(=O)Nc1nncs1 (stereo not given)
60: O=C(O)c1cnn2c(C(F)F)cc(C3CC3)nc12

Compound | 55 | 56 | 57 | 58 | 59 | 60
Ba CapD inh | . | . | 0.1 | . | 0.625 | .
AID504770 | -1.15 | 0.7 | -0.05 | -0.15 | -0.25 | -0.05

61: CC(C)OC(=O)CSc1ncnc2scc(-c3ccccc3)c12
62: Cn1c(Sc2cnn(-c3ccccc3)c(=O)c2Br)nnc1-c1ccccc1
63: c1ccc2c3c([nH]c2c1)CCCC3
64: O=C(Cn1cnc([N+](=O)[O-])n1)Nc1ccc([N+](=O)[O-])cc1Cl
65: c1ccc2c(c1)OCC(CNCC1COc3ccccc3O1)O2 (stereo not given)
66: Cc1ccc(C)c(N2CCN(C(=O)c3ccc(N4CCCC4=O)cc3)CC2)c1

Compound | 61 | 62 | 63 | 64 | 65 | 66
Ba CapD inh | 0.175 | -0.135 | . | -0.745 | -0.335 | -0.765
AID504770 | -0.2 | 0.7 | -0.55 | . | -0.4 | -0.95

# 2 compounds picked at random from the list so far, as already listed:
63: c1ccc2c3c([nH]c2c1)CCCC3
61: CC(C)OC(=O)CSc1ncnc2scc(-c3ccccc3)c12

Compound | 63 | 61
Ba CapD inh | . | 0.175
AID504770 | -0.55 | -0.2

# Other compounds follow:
67: CCOc1ccc(NC(=O)CSc2oc(-c3ccccc3)nc2S(=O)(=O)c2ccccc2)cc1
68: CCS(=O)(=O)c1ccc(O)c(N2C(=O)c3cccc4cccc(c34)C2=O)c1
69: Brc1ccc2c(c1)cc(-c1nc3ccccc3[nH]1)c1nc3ccccc3n12
70: NC(=O)c1cc[n+](CC2=C(C(=O)O)N3C(=O)C(NC(=O)C(c4ccccc4)S(=O)(=O)[O-])C3SC2)cc1 (stereo not given)
71: N#CCc1ccc(NC(=O)CCc2nc3cccnc3n2Cc2cccs2)cc1
72: Cc1ccc(C(=O)COC(=O)COc2ccccc2O)cc1C

Compound | 67 | 68 | 69 | 70 | 71 | 72
Ba CapD inh | 0.34 | -1.23 | -0.38 | 0.155 | 7.71 | .
AID504770 | -0.2 | -0.15 | . | . | 0.45 | 1.9

# Not a retest: entries from further up.
70: NC(=O)c1cc[n+](CC2=C(C(=O)O)N3C(=O)C(NC(=O)C(c4ccccc4)S(=O)(=O)[O-])C3SC2)cc1 (stereo not given)
71: N#CCc1ccc(NC(=O)CCc2nc3cccnc3n2Cc2cccs2)cc1
72: Cc1ccc(C(=O)COC(=O)COc2ccccc2O)cc1C

Compound | 70 | 71 | 72
Ba CapD inh | 0.155 | 7.71 | .
AID504770 | . | 0.45 | 1.9

# Additional records follow.
73: CCOC(=O)c1sc(NC(=O)C2COc3ccccc3O2)c(C(=O)OCC)c1C (stereo not given)
74: N#Cc1c(OCC(F)(F)F)cccc1OCC(F)(F)F
75: CC(C)/C=C1\CC/C(=C\c2ccc(C(F)(F)F)cc2)C1=O
76: O=c1c2cc3c(cc2nc(SCc2cccc(F)c2)n1Cc1ccco1)OCO3
77: CC1(C)CCCC2(C)C1CCC(C)(O)C2CCO (stereo not given)
78: CCc1ccccc1N(C)C(=O)Cc1c(C(=O)O)[nH]c2ccccc12

Compound | 73 | 74 | 75 | 76 | 77 | 78
Ba CapD inh | 0.35 | -0.14 | 6.29 | -0.56 | . | -0.515
AID504770 | . | . | -0.2 | -0.25 | 0.25 | -0.15

79: O=C(NCc1ccccc1)C1CCCN(c2nc3ccsc3c(=O)s2)C1 (stereo not given)
80: COc1ccc(C2c3ccsc3CCN2C(=O)c2c(C)noc2C)cc1 (stereo not given)
81: COc1cc(-c2nc3sc4c(c3c(=O)[nH]2)CCCC4)ccc1OCCOc1ccc(Br)cc1
82: COC(=O)C(NC(=O)CC1Cc2ccccc2C1)c1ccccc1 (stereo not given)
83: CCn1c(CSc2nc(C)c(C)n2C2CCCC2)nc2cc(S(=O)(=O)N(C)C)ccc21
84: COc1cccc(C2CC(c3cccs3)=NN2S(=O)(=O)c2ccc(C)cc2)c1OC (stereo not given)

Compound | 79 | 80 | 81 | 82 | 83 | 84
Ba CapD inh | 0.365 | 1.38 | 0.43 | -0.235 | . | 0.55
AID504770 | -0.35 | -0.15 | . | . | 0.95 | .

85: CC(SC(=S)N1CCCCCC1)C(=O)O (stereo not given)
86: Cc1oc2c(C)c(O)c(CN(C)C)cc2c(=O)c1Oc1ccccc1F
87: CC(C)C1C(=O)Nc2ccc(S(=O)(=O)NC3CCCC3)cc21 (stereo not given)
88: O=C(O)COc1ccc(/C=C2\C(=O)NC(=S)N(c3ccc(Cl)cc3)C2=O)cc1Br
89: CN(C)c1ccc(N/C=C2/CCCC2=O)cc1
90: Cc1[nH]c2ccccc2c1CCN1C(=O)c2ccccc2C1=O

Compound | 85 | 86 | 87 | 88 | 89 | 90
Ba CapD inh | . | 3.26 | 1.96 | -1.35 | 0.59 | -0.05
AID504770 | -0.15 | -0.2 | 0 | . | 0.35 | 0.95

91: CCOC(=O)c1c(NC(=O)C(C)Sc2nnc(CNC(=O)c3ccco3)n2C)sc2c1CCC2 (stereo not given)
92: O=C(NCC1CCCO1)c1ccc(F)c2ccccc12 (stereo not given)
93: COc1ccc(C(=O)Nn2c(SCC(=O)Nc3ccc(C)cc3)nc3ccccc3c2=O)cc1
94: OCCNc1nc2ccccc2n1CN1CCN(c2ccccc2F)CC1
95: Cc1ccc(OCC(=O)Nc2ccccc2C(=O)N(C)C)cc1
96: NC(=O)C1CCN(c2nc(-c3ccccc3)nc3ccccc23)CC1

Compound | 91 | 92 | 93 | 94 | 95 | 96
Ba CapD inh | -0.64 | -0.22 | 0.485 | . | -0.145 | .
AID504770 | . | -1 | . | 0.15 | -0.9 | 1.1

97: O=C(C1=NN(c2ccccc2)C2(S1)SC(c1ccc(Cl)cc1)(c1ccc(Cl)cc1)c1ccccc12)c1ccccc1 (stereo not given)
98: CN(CC(=O)Nc1ccc(F)cc1)C(=O)COc1ncnc2c1cnn2-c1ccccc1
99: COC(=O)Cc1nc2ccccc2[nH]1
100: O=C(Nc1cc(Cl)cc(Cl)c1)C1=COCCO1

Compound | 97 | 98 | 99 | 100
Ba CapD inh | -0.49 | . | 6.21 | .
AID504770 | . | 0.3 | 0.45 | 0.2

# A portion of the library; rates above refer to the full screens.
